B2AR ag: activates human beta-2 adrenergic receptor causing internalization; P07550; Am2.2-beta2AR cells, FAP receptor internalization, flow cytometry; reference of the scale not given here; response, % (test concentration not listed); hit rate 0.43% among 340,000; AID 504454;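 active = response above a set limit, near 3 SD of response in nonfluorescent compounds, cut at about 42% in these data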;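 also: stock transfer was 100 nL into about 11 µL; a reference agonist was the positive control; negative values mostly stem from fluorescent compounds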
Target sequence (P07550 whole entry, looked up): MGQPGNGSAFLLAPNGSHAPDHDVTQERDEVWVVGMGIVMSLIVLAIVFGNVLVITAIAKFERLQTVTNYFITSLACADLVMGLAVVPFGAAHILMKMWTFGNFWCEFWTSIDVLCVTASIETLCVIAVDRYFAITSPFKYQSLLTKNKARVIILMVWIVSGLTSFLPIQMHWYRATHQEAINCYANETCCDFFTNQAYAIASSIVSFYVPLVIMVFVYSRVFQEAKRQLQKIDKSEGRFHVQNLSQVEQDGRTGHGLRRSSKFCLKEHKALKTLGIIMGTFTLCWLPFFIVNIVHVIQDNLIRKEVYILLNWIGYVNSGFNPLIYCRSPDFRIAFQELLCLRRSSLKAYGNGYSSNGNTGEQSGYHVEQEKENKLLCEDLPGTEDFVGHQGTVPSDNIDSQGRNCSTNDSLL
Calb FLC: affects C. albicans growth with fluconazole; growth inhibition, % (test concentration not listed); hit rate 0.57% among 300,000; C. albicans CaCi-2 (fluconazole-resistant clinical isolate) + fluconazole, Alamar Blue growth, 48 h;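 active = most replicates above 75%; inconclusive = exactly half above 75%; inactive = most below 75%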;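 also: all wells also contain fluconazole at 8 µg/ml as a sub-toxic cotreatment; 0% = median of DMSO wells and 100% = median of geldanamycin control wells; wells of about 8 µL received 7.5 nL stock; the first replicate is given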
HNF4A DNA FP: change in binding of human HNF4 alpha to DNA; P41235; HNF4a-FITC DNA binding, fluorescence polarization, 1 h; activity change, % at 10 µM; hit rate 0.3% among 360,000; AID 1224865; in the data active = activity change above about 30%, passing the limit was not always enough;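 also: controls were the assay level and a saturating level of protein; the project sought stronger binding though the title names inhibitors; some compounds called inactive have numbers as strong as hits; positive values seem to mean higher polarization but the record does not say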
Target sequence (P41235 whole entry, looked up): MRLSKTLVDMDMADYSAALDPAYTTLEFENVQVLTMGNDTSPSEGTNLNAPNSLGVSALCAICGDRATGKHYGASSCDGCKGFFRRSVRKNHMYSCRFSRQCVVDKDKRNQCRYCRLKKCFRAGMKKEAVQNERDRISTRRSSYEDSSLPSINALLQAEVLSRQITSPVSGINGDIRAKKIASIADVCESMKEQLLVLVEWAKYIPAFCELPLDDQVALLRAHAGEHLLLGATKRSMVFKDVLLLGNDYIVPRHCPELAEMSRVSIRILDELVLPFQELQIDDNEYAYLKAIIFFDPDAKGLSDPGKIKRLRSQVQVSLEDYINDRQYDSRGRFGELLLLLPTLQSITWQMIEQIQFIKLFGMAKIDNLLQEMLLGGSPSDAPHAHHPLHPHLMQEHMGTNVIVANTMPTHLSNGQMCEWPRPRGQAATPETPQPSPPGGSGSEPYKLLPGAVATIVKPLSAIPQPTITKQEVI
ALR H2O2 inh: inhibitors of human sulfhydryl oxidase ALR; P55789; purified ALR, DTT oxidation, H2O2 HRP-luminol luminescence; inhibition, % (test concentration not listed); hit rate 3.8% among 290,000; AID 485317;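 active = mean and each replicate at 75% or more; inconclusive = only one of the two met; inactive = neither met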;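 also: stock transfer was 7.5 nL into about 7.5 µL; 0% = neutral wells and 100% = wells with inactivated enzyme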
Target sequence (P55789 whole entry, looked up): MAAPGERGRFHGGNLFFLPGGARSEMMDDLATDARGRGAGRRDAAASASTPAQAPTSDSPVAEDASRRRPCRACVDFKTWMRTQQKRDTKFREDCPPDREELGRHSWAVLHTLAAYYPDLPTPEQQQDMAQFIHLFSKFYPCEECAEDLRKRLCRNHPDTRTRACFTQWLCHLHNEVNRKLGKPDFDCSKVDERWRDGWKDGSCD
LANA-H2A inh: blocks KSHV LANA binding to histone H2A/H2B; Q9QR71; hit rate 0.6% among 320,000; inhibition, % (no concentration beside the values); cell-free LANA-H2A/H2B peptide, fluorescence polarization; AID 2629; in the data active = inhibition mostly above about 10%, no sharp cut-off; inactive = mostly below about 6.7%;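 also: stock transfer was 7.5 nL into about 10 µL; 0% = median of vehicle wells and 100% = median of positive control wells; one replicate is shown; the record names a cut of 25% in any replicate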
Vif TR-FRET: inhibitors of Vif binding to APOBEC3G peptide, primary screen, biochemical, TR-FRET, GST-Vif 1-94, biotin-A3G peptide, dose response retest (AID 1117319). TR-FRET GST-Vif / biotin-A3G peptide binding; higher % means a stronger effect; test concentration not given here; strong numbers were not always called active. hit rate 0.57% among 260,000. inhibition, %; hits with a dose series show IC50 in µM;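 active = above the screen mean plus three standard deviations and confirmed in dose response; inconclusive = results disagree or hit not tested in dose response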;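 also: Vif residues 1-94 fused to GST binding biotinylated APOBEC3G peptide 110-148; 0% = full assay without inhibitor and 100% = GST in place of GST-Vif; retest series ran down from 100 µM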
RanGTP-Imp inh: disruptors of Ran-importin-beta complex formation – biochemical, FRET, CFP-Ran, YFP-importin-beta, homogeneous, primary screen | inhibition, % (no concentration beside the values) | cell-free CFP-Ran/YFP-importin-beta FRET ratio | hit rate 1.1% among 300,000;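 active = most replicates above 15%; inconclusive = exactly half above 15%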;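 also: 0% = DMSO wells and 100% = Ran loaded with GDP instead of GTP; wells of about 40 µL received 100 nL stock; the first replicate is given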
* hit, by the source's call; i = inactive; u = inconclusive; x = not tested or not shown.

SMILES	B2AR ag	Calb FLC	HNF4A DNA FP	ALR H2O2 inh	LANA-H2A inh	Vif TR-FRET	RanGTP-Imp inh
Cc1ccccc1CO/N=C/c1[nH]ncc1Br	0	-3	-1.0	28	3.6	-8%	2.0
CCC(=O)N1CCc2cc(Br)cc(S(=O)(=O)N3CCN(C(=O)c4ccco4)CC3)c21	-9	-1	1.9	-2	-0.8	0%	u
CC(C)[C@H](NC(=O)c1ccccc1)C(=O)NCCc1ccccc1	-1	-25	1.0	x	0.5	17%	0.9
Cc1c(C(=O)NC2CCCc3ccccc32)cccc1[N+](=O)[O-] (centres undefined)	3	-1	0.4	-5	8.7	x	-2.8
CCCN1C(=O)C(NS(=O)(=O)c2ccc(N)cc2)(C(F)(F)F)C(C(=O)OC)=C1C (centres undefined)	-1	2	0.7	-12	-2.1	0%	-0.1
COc1ccccc1N1CCN(C2CCCN(C(=O)CCC(C)=O)C2)CC1 (centres undefined)	-1	-6	2.4	14	-0.7	x	2.3
O=C(NCc1cccnc1)C(=O)c1c[nH]c2ccccc12	-3	9	0.9	0	2.3	x	6.8
O=C(CNC(=O)c1ccc2c(c1)OCO2)N/N=C/c1cc(Br)ccc1O	-13	0	-1.4	x	-8.1	x	0.4
Nc1nnc(SCC(=O)Nc2cccnc2Cl)s1	-3	8	-0.4	-2	2.3	0%	3.0
Cn1c(=O)c2c(nc(SCC(=O)N3CCCCCC3)n2C)n(C)c1=O	-9	6	-0.1	x	-1.1	8%	-2.9
O=C(NCCc1ccccc1)c1cc2sccc2n1Cc1ccccc1	1	-3	-1.3	-2	5.4	-13%	7.0
O=C(Nc1ccccc1-c1ccccc1)C1CCC1	2	0	0.2	-5	-1.2	3%	1.3
CCc1ccc(C(=O)COC(=O)c2cnccn2)cc1	2	-9	1.0	-12	-0.9	-2%	0.9
O=C(O)C1C2C=CC(C2)C1C(=O)NCc1cccnc1 (centres undefined)	-1	-1	1.1	-14	0.3	x	0.9
Nc1cccc2c1C(=O)N(C(=O)/C=C/c1cccc(Br)c1)C2=O	18	-6	-9.6	x	x	>100µM*	34*
Cc1sc(NC(=O)c2ccco2)c(CN2CCN(c3ccc(F)cc3)CC2)c1C	-12	-7	2.2	-3	3.6	7%	-0.8
COc1cc2c(cc1OC)[C@H](C)N(C(=O)COc1ccccc1)CC2	-3	3	1.8	-11	-3.2	0%	0.8
COc1ccc(C2=C(C=O)Cc3ccccc3O2)cc1	0	-3	0.0	-2	2.2	x	2.3
COc1ccc(C(=O)n2cc(C(C)=O)c3ccccc32)cc1	6	8	0.4	3	3.3	-11%	11
C/C=C(/C)C(=O)OC1CC(C)(C)C[C@H]2C3=CC[C@@H]4[C@@]5(C)CCC(O[C@@H]6O[C@@H](C(=O)O)[C@@H](O)C(O[C@@H]7OC[C@H](O)[C@@H](O)[C@@H]7O[C@@H]7OC(CO)C(O)[C@@H](O)[C@@H]7O)C6O[C@@H]6OC(CO)C(O)C(O)C6O)[C@@](C)(CO)[C@@H]5CC[C@]4(C)[C@]3(C)CC(O)[C@@]12CO (some centres undefined)	11	x	-1.4	-4	-2.7	x	x
Cn1c(SCCC#N)nnc1-c1ccccc1F	-4	4	-1.9	x	-4.7	-5%	0.8
COc1ccc(CN(C)C(=O)COc2cccc(-n3cnnn3)c2)cc1OC	1	x	-0.8	-4	0.3	x	x
Cc1ccc(C(=O)NCC(=O)OCC(=O)N2CC(C)OC(C)C2)cc1 (centres undefined)	1	3	-1.5	4	3.9	1%	1.4
O=C(CCCSc1nc2ccccc2s1)NC1=NCCS1	-1	12	1.7	24	3.0	16%	0.8
Cc1ccc(NC(=O)c2cc(S(=O)(=O)N(C)C)ccc2N2CCCC2)cc1F	2	8	6.0	-6	0.6	x	2.6
SMILES	B2AR ag	Calb FLC	HNF4A DNA FP	ALR H2O2 inh	LANA-H2A inh	Vif TR-FRET	RanGTP-Imp inh
Cc1cccc(NC(=O)/C(=C/c2cccc([N+](=O)[O-])c2)NC(=O)c2cccs2)c1	3	2	-2.3	x	4.0	x	3.5
Cc1cc(=O)[nH]c(SCC(=O)NC2CCCCCC2)n1	4	x	1.2	0	6.7	-4%	x
Clc1ccc2nc3c4ccccc4cnn3c2c1	-5	9	0.1	-2	5.2	-10%	6.2
N#CCCN(C1CCCCC1)S(=O)(=O)CCOc1ccccc1	-2	-1	-4.2	-2	3.6	0%	0.8
COc1cc(C(=O)OC(C)C(=O)NCC2CCCCC2)cc(NC(=O)c2ccco2)c1OC (centres undefined)	19	-3	0.9	-5	1.9	-10%	-3.1
Cc1cc(C(=O)COC(=O)c2ccc(O)cc2O)c(C)n1-c1ccccc1	1	x	7.4	1	3.2	-5%	x
CCCCn1c(N)c(N(C)C(=O)c2cc3c(s2)CCCCC3)c(=O)[nH]c1=O	2	x	2.9	-1	x	4%	x
Cc1ccc(-c2nc(CSCC(=O)NC3CCN(Cc4ccccc4)CC3)c(C)o2)cc1	-16	2	-18	99*	-6.9	x	-1.1
COc1ccc(NC(=O)N(C)C[C@H]2Oc3ccc(NC(=O)CCC(F)(F)F)cc3C(=O)N([C@H](C)CO)C[C@@H]2C)cc1	4	x	0.5	-3	-5.4	x	x
CCn1ncc(CN2CCCC(C(=O)Nc3cccc(-c4cc5ccccc5[nH]4)c3)C2)c1C (centres undefined)	7	3	-2.7	19	-5.4	-10%	-4.4
CC(C)CN1C(=O)C(=O)N(CC(=O)N2CCN(c3ccccc3)CC2)C1=O	5	5	2.6	x	x	-5%	-0.6
Cc1sc(CO)c(Sc2ccccc2)c1C(=O)O	x	-6	x	-2	3.3	0%	-2.2
CC(=O)Nc1ccc(S(=O)(=O)NCc2csc(C)n2)cc1	6	5	5.7	-14	-0.6	29%	u
Cc1ccc(-c2c(NCCc3ccccc3)c(=O)c2=O)cc1	-16	-4	3.6	4	-4.6	0%	u
O=C(O)CCCC(=O)Nc1cccc([N+](=O)[O-])c1	-2	-6	-3.1	-10	-2.5	x	-0.2
CC(C)CC(=O)/C=C/n1c(=S)oc2ccccc21	49*	43	0.7	6	i	x	-2.8
CSc1nc(C)cc(OCC(=O)n2nc(C)cc2C)n1	-3	-4	7.3	-2	-3.1	2%	0.6
CCC(O)c1cc2c(cc1NC(=O)c1ccc(C)cc1)OCCO2 (centres undefined)	-5	-39	-3.3	x	-1.6	6%	-0.6
COc1ccc(OC)c(C(Nc2ccccc2)P(=O)(OC(C)C)OC(C)C)c1 (centres undefined)	7	-12	0.1	33	-0.4	u	2.5
CCOc1ccc(-c2nnn(CC(=O)NCc3ccco3)n2)cc1OCC	-3	-5	-1.3	-2	-2.3	-4%	-2.2
c1ccc2[nH]c(CSc3nc4ccccc4s3)nc2c1	-5	-1	0.8	-7	1.6	-2%	8.8
COc1cc(OC)nc(Oc2cccc(C(F)(F)F)c2)n1	2	3	6.3	-4	2.8	-1%	-3.2
O=C(CSc1cccc2cccnc12)Nc1cc(C(=O)O)cc(C(=O)O)c1	-6	-9	-1.4	-8	6.9	x	6.0
C#CCOc1ccc(C2C(C#N)=C(N)Oc3cc(O)ccc32)cc1 (centres undefined)	-1	29	24	6	-1.4	3%	67*
CC1CC(C)CN(C(=O)Cn2ncc3c([nH]c4ccccc43)c2=O)C1 (centres undefined)	-9	7	-2.4	-13	-4.3	-3%	3.1
SMILES	B2AR ag	Calb FLC	HNF4A DNA FP	ALR H2O2 inh	LANA-H2A inh	Vif TR-FRET	RanGTP-Imp inh
CCOc1ccc(-c2nnc3ccc(SCC(=O)N4CCCCC4)nn23)cc1	-33	-3	1.2	4	2.0	x	3.6
COc1ccc(CCNC(=O)CNC(=O)c2ccc3c(c2)OCO3)cc1OC	0	2	-2.2	-9	-0.6	-3%	4.3
O=C(c1cc(S(=O)(=O)N2CCOCC2)ccc1Cl)N1CCc2ccccc2C1	-12	-7	4.2	-6	-2.7	x	-3.9
CC[C@@]1(C(=O)OC)N[C@H](CN(C)S(=O)(=O)c2ccccc2)[C@@H]2C(=O)N(C)C(=O)[C@@H]21	-4	x	0.9	x	x	3%	x
Nc1cc(SCc2ccc(Cl)cc2Cl)ncn1	-7	x	-0.3	x	x	-2%	x
O=C(CCSc1nnc(-c2ccncc2)o1)Nc1cccc2ccccc12	2	42	-0.7	-19	-6.9	15%	8.4
Cc1ccc(C(=O)NC(C)c2ccc(-n3ccnc3)cc2)c(C)c1 (centres undefined)	2	-18	-2.4	0	-8.8	x	2.0
Cc1cc(C(=O)NCC23CC4CC(CC(C4)C2)C3)c(C)o1	x	5	x	4	0.4	13%	u
CCOC(=O)NC(CC(=O)O)c1ccc(OCC)cc1 (centres undefined)	6	15	0.7	0	-4.8	-3%	4.2
N#Cc1ccc(C(=O)Nc2nnc(-c3cccs3)o2)cc1	1	-6	-2.4	6	0.8	-5%	5.4
Cc1cc(C(=O)CCC(=O)NC(C)c2ccc(S(N)(=O)=O)cc2)c(C)s1 (centres undefined)	0	-3	1.2	-4	0.0	1%	2.8
O=C(Nc1ccc(Cn2nnc3ccccc32)cc1)c1ccco1	-13	-23	-0.7	-3	-2.8	-4%	-3.2
CCN(CC)c1ccc(NC(=O)c2ccc(=O)[nH]c2)cc1S(=O)(=O)Nc1ccccc1OC	-1	13	0.4	-12	-3.0	3%	u
CC(=O)Nc1ccc(S(=O)(=O)Nc2nc(C)nc3sc4c(c23)CCC4)cc1	-4	0	-2.5	x	-4.5	x	0.5
O=C(Nc1ccc(CN2CCOCC2)cc1)c1ccccc1F	7	4	-0.8	-14	-0.2	0%	9.2
CCOc1ccc(S(=O)(=O)NC(C)C(=O)NCc2ccncc2)cc1 (centres undefined)	11	4	-0.2	0	-1.5	x	0.1
CNC(=O)c1ccc(NC(=O)Nc2ccccc2)cc1	4	-4	-0.3	-9	1.3	x	-0.2
O=C(c1cccc(OCc2ccccc2)c1)N1CCOCC1	0	-1	-0.5	-2	-0.6	-1%	-0.8
COc1ccc(CNC(=O)C2CCN(C(=O)c3cccc(Cl)c3)CC2)cc1	-1	-2	-1.1	0	-3.8	x	-5.0
Clc1ccc(-c2nc3ccccc3nc2-c2ccccc2)cc1	-11	-28	3.8	1	-11	0%	-3.6
CCCc1c(C(=O)N/N=C/c2ccco2)nnn1-c1nonc1N	-6	x	-2.9	-1	3.7	-9%	1.2
CCCOc1ccc(-c2cnc(N)s2)cc1	5	7	1.8	98*	3.5	2%	6.8
CCC(=O)n1nc(-c2cccnc2)nc1NCc1ccc(OC)cc1	1	-14	1.6	13	-1.5	8%	0.8
NS(=O)(=O)c1cccc(NC(=O)COC(=O)Cc2ccc(S(=O)(=O)N3CCCCC3)s2)c1	1	8	12	-10	-4.2	28%	1.4
O=c1c(Cc2ccc(Cl)cc2Cl)c(O)ccn1CC(F)(F)F	-5	-5	-0.4	33	7.1	-4%	-4.0
SMILES	B2AR ag	Calb FLC	HNF4A DNA FP	ALR H2O2 inh	LANA-H2A inh	Vif TR-FRET	RanGTP-Imp inh
O=C(/C=C/Nc1ccc(F)cc1F)c1cccs1	-8	-2	-3.1	1	-3.5	x	4.1
COc1ccccc1N1CCN(C(=O)CCn2c(=O)[nH]c3ccsc3c2=O)CC1	1	6	0.8	24	2.1	11%	-1.5
S=C1NCCN1CC1CCN(CCC23CC4CC(CC(C4)C2)C3)CC1	-4	x	0.2	x	x	-2%	x
CCCC[C@@H]1CCCO[C@@](C(=O)NCc2ccc(C)o2)(C(F)(F)F)C1	4	-11	0.7	90*	1.9	x	1.6
CS(=O)(=O)c1ccc(C(=O)Nc2ccc(N3CCCCC3)cc2)c(Cl)c1	3	u	2.2	-16	-0.2	6%	3.5
CN(C)S(=O)(=O)c1ccc(N2CCCC2)c(C(=O)OCC(=O)NC2(C#N)CCCCC2)c1	0	1	-0.2	0	-6.4	-2%	1.3
Cc1cccc(-n2ccnc2CN2CCC(CO)(Cc3ccccc3)CC2)c1	-3	-16	2.2	7	4.6	u	4.3

Screening results deposited in PubChem BioAssay by several laboratories.

This is a random part of the collection (roughly 6.3% active in at least one column).
